# Bioassay records deposited in PubChem BioAssay by several laboratories.
# Bead autofluor: flagged as autofluorescent in microsphere protease counterscreen. fluorescence intensity (test concentration not listed). actives 3.1% (n = 360,000). compound autofluorescence counterscreen, microsphere flow cytometry; stronger effect = higher value;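 active = at least 3 SD above the mean of all compounds, about 16000 in these data; inconclusive = too few beads counted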;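 note: 100 nL of 1 mM stock went into each well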
# Sa RN4220 lethal: S. aureus RN4220 growth inhibition; OD600, 16 h; inhibition, % (concentration not given with the values); actives 0.33% (n = 330,000); AID 1259311;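 active = z-score of -3 or lower and OD600 up to 0.18 on both plates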;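 note: plate controls were untreated cells for no effect and reference antibiotic for full effect; stock transfer was 100 nL into about 80 µL; one replicate is shown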
# Mtb hypoxia rep: reduces hypoxia-regulated biosensor signal in M. tuberculosis. AID 1159583. M. tuberculosis hypoxia-regulated fluorescent reporter, fluorescence. fluorescence inhibition, % (test concentration not listed). actives 0.1% (n = 300,000);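 active = 35 to 45% if threefold the growth effect, above 45% if 1.5-fold the growth effect; inactive = the rest, general growth blockers included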;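 note: wells of about 50 µL received 100 nL stock; 0% = vehicle wells and 100% = reference inhibitor wells; whole bacteria with a GFP reporter of the hypoxia response; strong numbers were not always called active; many hits fall short of the cut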
# PrP 5UTR inh: suppresses PrP 5' UTR mRNA reporter expression | cell-based PrP 5' UTR mRNA reporter, plate reader | inhibition, % (test concentration not listed) | actives 0.35% (n = 340,000);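 active = every replicate at 50% or more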;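 note: 0 = median of the neutral control wells; tested in H4 reporter cells; numbers are from one replicate; inactives centre near -14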
# ugtP null kill: kills S. aureus RN4220 lacking UgtP | S. aureus RN4220 ugtP deletion, OD600 growth, 16 h; some inactives read as strong as hits | growth inhibition, % (no concentration beside the values) | actives 0.54% (n = 330,000) | AID 1259309;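 active = z-score under -3 and OD600 up to 0.15 on both plates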;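 note: plate controls were untreated wells for no effect and antibiotic for full effect; wells of about 80 µL received 100 nL stock; the first replicate is given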
# BJeLR lethal: BJeLR cell viability loss. BJeLR (HRASV12) viability, CellTiter-Glo ATP luminescence, 48 h; reference of the scale not given here. inhibition, % (concentration not given with the values). actives 0.17% (n = 300,000);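 active = replicate mean above 50%; inconclusive = above 50% but judged a plate artefact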;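 note: 50 nL library stock added to about 25 µL; numbers are from one replicate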
# Mtb hypoxia rep growth: also measured in Mtb hypoxia rep; calls as there; growth inhibition, %; measured here: M. tuberculosis growth (absorbance);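 0% = vehicle and 100% = reference antibiotic; read after six days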
# An asterisk follows results filed as active; u = inconclusive; x = not tested or not shown. The order is random; 4% or so of the library scored in one or more.
SMILES,Bead autofluor,Sa RN4220 lethal,Mtb hypoxia rep,Mtb hypoxia rep growth,PrP 5UTR inh,ugtP null kill,BJeLR lethal
Cc1ccc(-c2ccc(S(=O)(=O)NCC3CCCO3)cc2)cc1 (stereo not drawn),4674,3.5,8,4,28,10,9
CCC(C)C1CNC(=S)N1CCC12CC3CC(CC(C3)C1)C2 (stereo not drawn),x,1.7,7,6,x,9,x
COc1ccc(-c2cn(/N=C/c3ccc(Cl)cc3Cl)c(N)n2)cc1,8134,x,x,x,-28,x,2
COC(=O)C(Cc1ccccc1)NC(=O)[C@@]1(C)CC1C(NC(=O)OCc1ccccc1)c1ccccc1 (stereo partly drawn),x,-1.4,-3,4,x,6,x
C(=N\n1cncn1)/c1ccc(N2CCOCC2)cc1,3182,x,x,x,19,x,-4
c1cnc2ccc(C(c3nnnn3C3CCCCC3)N3CCN(C4CCCCC4)CC3)cc2c1 (stereo not drawn),4641,-2.5,-6,-9,-19,7,-3
O=C(NC(=S)Nc1nc2ccccc2s1)c1ccco1,2690,-0.8,11,1,-37,5,2
Cc1ncc(CO)c(C=NNC(=S)Nc2ccc(C(C)C)cc2)c1O,x,-21,5,-2,x,2,x
CC(=O)N1CSCC1C(=O)NNS(=O)(=O)c1ccccc1 (stereo not drawn),x,2.8,4,8,x,8,-5
COc1ccc(S(=O)(=O)NCCSc2ccccc2)cc1OC,4304,1.9,11,19,-6,3,-9
C=CCn1c(SCc2cc(=O)n3cc(C)ccc3n2)nnc1-c1ccc(F)cc1,2530,4.3,7,12,-36,4,-1
O=C(NCCCN1CCOCC1)c1c(F)c(F)c(F)c(F)c1F,6552,1.0,11,5,-14,-1,2
O=C1c2ccccc2C(=O)N1CCOc1cccc(Br)c1,5941,5.2,4,15,-25,-7,2
O=C(O)c1ccc(C=Nn2cc(-c3ccccc3)[nH]c2=S)cc1,x,1.3,-1,0,x,-10,x
O=C(CSCc1ccccc1)Nc1ccc(F)c(F)c1,2121,-4.7,-1,-2,-75,0,-8
COc1ccc(C2(C(=O)NC3CCCCC3)CCOCC2)cc1OC,4666,-9.9,-11,2,-13,-2,1
COC(=O)c1nc(N)sc1C(C)C,4529,-3.7,3,8,-13,1,-10
CCn1c(CCNC(=O)c2ccc(F)cc2)nc2ccccc21,5656,-8.8,6,8,-13,-5,-5
Cc1c(NC(=O)c2ccc(N(C)S(C)(=O)=O)cc2)c(=O)n(-c2ccccc2)n1C,6194,2.6,1,3,-30,4,x
Cc1ccc(-c2noc(C3CCN(C(=O)Nc4ccc(C#N)cc4)CC3)n2)o1,10271,0.3,1,3,-33,4,-9
COc1ccc(C(=O)NN(c2ccccc2)c2ccccc2)cc1,15071,-2.3,5,0,-12,-6,-4
Cc1ccc(C)c(CN2C(=O)C3CCCN3c3ccc(C#N)cc32)c1 (stereo not drawn),4446,4.4,16,9,-20,0,-1
CCOC(=O)N1CCN(C(=O)c2noc(C(C)C)c2[N+](=O)[O-])CC1,5380,4.4,x,x,0,4,-25
CCOC(=O)Nc1c(O)ccc2oc(C)c(-c3ccccc3)c12,2289,4.6,x,x,-19,-12,12
Nc1cc(C(=O)OCC(=O)NNC(=O)c2cccs2)ccc1Cl,5901,1.6,6,0,-34,0,-2
# (further entries)
SMILES,Bead autofluor,Sa RN4220 lethal,Mtb hypoxia rep,Mtb hypoxia rep growth,PrP 5UTR inh,ugtP null kill,BJeLR lethal
Cc1ccccc1Sc1ccc(N)cn1,x,2.8,9,-1,x,12,4
COc1ccc(C(=O)/C=C/Nc2ccc([N+](=O)[O-])cc2C)c(OC)c1,10934,23,-4,1,-27,-25,6
OC(COC(c1ccccc1)c1ccccc1)CN1CCc2ccccc2C1 (stereo not drawn),2664,-1.6,4,0,-16,3,4
C=CCNc1nc(NCc2ccccc2)nc(OCC)n1,3516,2.9,17,7,-15,4,1
Cc1ccc(-c2nnc(SCC(=O)N/N=C/c3cccs3)n2-c2ccc(C)cc2)cc1,2625,x,x,x,-10,x,4
CCOC(=O)C1(Cc2ccc(OC)cc2)CCN(S(C)(=O)=O)CC1,4305,1.8,3,-4,-24,2,10
Cc1cc(OC(=O)c2ccc(F)cc2)c([N+](=O)[O-])c(=O)[nH]1,6763,1.0,1,5,-19,3,-1
CC(=O)Nc1sc2c(c1C#N)CCCC2,6486,6.9,11,4,-1,11,1
O=C(COC(=O)c1ccc(NS(=O)(=O)c2cccs2)cc1O)Nc1nc2ccccc2s1,5043,x,x,x,-43,x,-19
Cc1[nH]n(C2=NCCS2)c(=O)c1N=Nc1cccc(C(F)(F)F)c1,2494,99*,16,17,3,99*,10
O=C(O)c1ccccc1NC(=O)c1ccccc1-c1ccccc1C(=O)O,3379,-0.4,2,19,-3,4,-6
COc1ccc(CCNc2nc(-c3ccc(F)cc3)c(CC(=O)O)s2)cc1OC,4475,3.6,10,11,-7,-3,-2
CCC(Sc1nc(C)cc(=O)[nH]1)C(=O)Nc1nc2c(s1)CCCC2 (stereo not drawn),22164*,4.0,4,11,7,-12,-5
COc1cc(OC)cc(C(=O)N[C@H](C(=O)NCc2ccc(F)cc2)C(C)C)c1,3268,-0.1,-3,2,0,1,-1
CSc1nnc(C(C)c2ncc(C(F)(F)F)cc2Cl)n1C (stereo not drawn),4613,7.6,12,2,4,10,3
CSc1nnc(-c2cccc(C)c2)n1N,2026,2.5,x,x,7,1,3
COc1cc(/C=N/NC(=O)C(Cc2c[nH]c3ccccc23)NC(=O)OCC(C)C)cc([N+](=O)[O-])c1O (stereo not drawn),2533,x,x,x,-6,x,-7
CCOC(=O)c1c(-c2ccccc2)oc2ccc(OC(=O)N(C)C)cc12,18322*,8.2,5,6,9,32,4
Cc1ccccc1NC(=O)CSC(=O)c1ccccc1,4024,3.1,7,-4,-29,5,x
C=CCn1c(C(C)NC(=O)COC)nc2ccccc21 (stereo not drawn),6146,32,-9,1,-13,25,-13
CC(=NNC(=O)Cn1nnc2ccccc21)c1ccco1,x,6.5,14,5,x,7,x
Cc1c(Cl)cccc1N=C1SCCN1C(=O)CN1C(=O)NC2(CCCC2)C1=O,6697,-3.7,-6,-1,-22,-11,-6
O=C(NCCC1CCCCN1S(=O)(=O)c1ccccc1)C(=O)NCCN1CCOCC1 (stereo not drawn),6214,1.7,14,3,-11,0,-4
O=C(NC1CCCCC1)C(c1ccccn1)N(C(=O)Cc1cccs1)c1ccc(Cl)cc1 (stereo not drawn),10088,-0.6,-12,-8,-16,-4,5
COc1nc(-c2ccc(Cl)cc2)nnc1C,2742,6.5,12,6,-5,3,0

# Single records (already shown). Screens in order: Bead autofluor	Sa RN4220 lethal	Mtb hypoxia rep	Mtb hypoxia rep growth	PrP 5UTR inh	ugtP null kill	BJeLR lethal
# O=C(O)c1ccccc1NC(=O)c1ccccc1-c1ccccc1C(=O)O reads 3379	-0.4	2	19	-3	4	-6
# C=CCNc1nc(NCc2ccccc2)nc(OCC)n1 reads 3516	2.9	17	7	-15	4	1
# COc1cc(OC)cc(C(=O)N[C@H](C(=O)NCc2ccc(F)cc2)C(C)C)c1 reads 3268	-0.1	-3	2	0	1	-1
# C=CCn1c(C(C)NC(=O)COC)nc2ccccc21 (stereo not drawn) reads 6146	32	-9	1	-13	25	-13
# Cc1c(Cl)cccc1N=C1SCCN1C(=O)CN1C(=O)NC2(CCCC2)C1=O reads 6697	-3.7	-6	-1	-22	-11	-6

# New compounds follow.
SMILES,Bead autofluor,Sa RN4220 lethal,Mtb hypoxia rep,Mtb hypoxia rep growth,PrP 5UTR inh,ugtP null kill,BJeLR lethal
CCCCCCCCNc1ccccc1S(=O)(=O)NCc1ccccc1,2836,4.0,-3,4,-6,-17,x
O=C(O)c1[nH]c2ccccc2c1NS(=O)(=O)Cc1ccccc1,16578*,6.8,6,7,-25,8,15
COCCCN(C(=O)Nc1ccccc1)C(C)c1ccncc1 (stereo not drawn),5773,9.0,-2,1,1,-5,4
COC(=O)c1ccc(OC(=O)c2cccnc2SC)cc1,3444,1.1,7,5,-28,13,1
Fc1ccc(C(c2nnnn2Cc2ccco2)N2CCN(C3CCCCC3)CC2)cc1 (stereo not drawn),4204,-0.5,x,x,1,7,5
Cc1cc(NC(=O)CSc2nc(-c3ccccc3)nc3c2c(=O)n(C)c(=O)n3C)no1,5398,5.4,1,0,14,4,-9
COc1ccc(N2CCN(C(=O)c3ccc(-c4ccccc4)cc3)CC2)cc1,3701,2.7,-7,-8,-10,0,-4
CNC(=O)c1cccc(NC(=O)CCCNC(=O)c2ccc(Cl)cc2)c1,3481,1.3,7,2,-19,0,-9
O=C1NC(=O)C2C1C(c1ccc([N+](=O)[O-])cc1)=NN2Cc1ccccc1 (stereo not drawn),3265,2.0,-10,-7,-3,3,-3
CCC1CCCCN1C(=O)c1cc(COc2ccc(-n3cncn3)cc2)on1 (stereo not drawn),6419,4.7,6,6,-22,7,-2
CCOc1cc(/C=N/NC(=O)C(O)(c2ccccc2)c2ccccc2)ccc1OC(=O)c1ccco1,4836,x,x,x,-6,x,-9
Cc1ccccc1Cc1c(C)nc2c(C(=O)NCc3ccc4c(c3)OCO4)cnn2c1C,16548*,-5.7,-10,2,-30,-20,4
CCOCCCNC(=O)CN1C(=O)COc2ccc(S(=O)(=O)N3CCC(C)CC3)cc21,u,-0.9,-3,-3,-5,8,-4
Cc1cccn2cc(CCNS(=O)(=O)c3ccc([N+](=O)[O-])cc3)nc12,6803,0.3,5,7,-19,-9,-8
Cc1nc(N2CCN(c3ccccc3F)CC2)[nH]c(=O)c1C,3937,3.3,6,2,-46,9,-5
O=C(CSc1nc2ncccc2[nH]1)Nc1ccc2c(c1)OCCO2,2530,-5.1,x,x,-12,-5,x
CC1CCCCN1C(=O)CNCc1ccc(F)cc1 (stereo not drawn),3788,1.9,9,-1,-18,-1,-2
COc1ccc(C(=O)N2CCCC2(C#N)c2ccccc2)cc1[N+](=O)[O-] (stereo not drawn),4100,2.0,3,0,-10,4,-2
COc1ccc(-c2ccc(C(=O)O)c(=O)[nH]2)cc1,2000,0.0,-2,4,-1,13,3
Cn1cnnc1SCC(=O)Nc1nc(-c2ccccc2)cs1,4491,5.8,8,-1,-20,-1,10
N/C(=N\OC(=O)C12CC3CC(CC(C3)C1)C2)c1ccncc1,3313,3.6,-2,-4,x,-3,-4
Cn1c(=O)c2c(nc(N3CCOCC3)n2Cc2c(F)cccc2Cl)n(C)c1=O,9171,6.6,-25,-47,-16,-5,-1
O=C(Nc1ccc(F)c(F)c1)C1CCN(S(=O)(=O)c2cccc3nonc23)CC1,4557,6.2,11,5,-12,6,-13
O=C(Cc1ccc(Cl)cc1)Nc1ccc2c(c1)C(=O)NC2=O,2429,0.3,-3,-4,-8,0,-19
Cc1ccc2oc(-c3ccco3)nc2c1,2451,11,15,2,-68,9,-4

# Compounds above with a CF3 group, in the order listed:
SMILES,Bead autofluor,Sa RN4220 lethal,Mtb hypoxia rep,Mtb hypoxia rep growth,PrP 5UTR inh,ugtP null kill,BJeLR lethal
Cc1[nH]n(C2=NCCS2)c(=O)c1N=Nc1cccc(C(F)(F)F)c1,2494,99*,16,17,3,99*,10
CSc1nnc(C(C)c2ncc(C(F)(F)F)cc2Cl)n1C (stereo not drawn),4613,7.6,12,2,4,10,3

# Next section.
SMILES,Bead autofluor,Sa RN4220 lethal,Mtb hypoxia rep,Mtb hypoxia rep growth,PrP 5UTR inh,ugtP null kill,BJeLR lethal
Nc1n[nH]c(-c2ccccc2[N+](=O)[O-])n1,2512,-1.7,-5,7,-7,4,-3
COC(=O)c1ccccc1OP1(=O)COc2ccccc2OC1,22712*,3.1,-7,6,-7,-3,8
Cn1nnc2c(C(N)=O)ncn2c1=O,6166,2.6,10,2,x,4,x
Cc1ccc(Cl)c(OC(=O)C2CSC3(C)CCC(=O)N23)c1 (stereo not drawn),7002,-0.5,-6,-7,-24,-4,0
CC(=O)c1cccc(NC(=O)CC2SC(N3CCCCC3)=NC2=O)c1 (stereo not drawn),2732,2.0,x,x,0,-2,4
CCOC(=O)N1C(=O)[C@](c2ccc(Cl)cc2)(C(C)C)N1C(=O)OCC,3683,8.0,0,-9,-24,3,-4
Cn1c(N=Nc2ccc(N3CCOCC3)cc2)[n+](C)c2ccccc21,3576,7.9,1,6,-30,-2,11
Cc1nccc(-c2cc(-c3ccc(Cl)cc3Cl)no2)n1,4282,6.7,22,2,-123,5,-15
N#C/C(=C\N1CCOCC1)c1ccccc1,7251,8.3,12,6,-7,11,-1
Cn1c(=O)[nH]c(=O)c2c1ncn2CCN1CCOCC1,5266,4.2,x,x,-3,6,1
CCn1c2c(c(=N)c3ccccc31)CCC2,3728,0.7,12,5,-56,4,11
